# EPAC2 antag – Validation qHTS for antagonist of cAMP-regulated guanine nucleotide exchange factor 4 (EPAC2) | EPAC2 Rap1B BODIPY-GDP exchange, fluorescence | 16,000 compounds, 1.7% hits | Rap guanine nucleotide exchange factor 4 (Homo sapiens), Q8WZA2 | Potency, µM (highest dose often 112 µM), inactives show at the top dose activity, negative = inhibition, actives largely listed as inhibitors; active = well fitted inhibition curve with a large enough effect; inconclusive = small, poorly fitted or top-dose-only effect; inactive = no such curve, though single readings can be large or run the other way;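 also: 100% = activation by cAMP agonist control; nearly all actives have a fitted effect of over 40% in size; the record reuses the description of the EPAC1 agonist screen; inactives centre near -10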
# Target sequence (Q8WZA2 whole entry, looked up): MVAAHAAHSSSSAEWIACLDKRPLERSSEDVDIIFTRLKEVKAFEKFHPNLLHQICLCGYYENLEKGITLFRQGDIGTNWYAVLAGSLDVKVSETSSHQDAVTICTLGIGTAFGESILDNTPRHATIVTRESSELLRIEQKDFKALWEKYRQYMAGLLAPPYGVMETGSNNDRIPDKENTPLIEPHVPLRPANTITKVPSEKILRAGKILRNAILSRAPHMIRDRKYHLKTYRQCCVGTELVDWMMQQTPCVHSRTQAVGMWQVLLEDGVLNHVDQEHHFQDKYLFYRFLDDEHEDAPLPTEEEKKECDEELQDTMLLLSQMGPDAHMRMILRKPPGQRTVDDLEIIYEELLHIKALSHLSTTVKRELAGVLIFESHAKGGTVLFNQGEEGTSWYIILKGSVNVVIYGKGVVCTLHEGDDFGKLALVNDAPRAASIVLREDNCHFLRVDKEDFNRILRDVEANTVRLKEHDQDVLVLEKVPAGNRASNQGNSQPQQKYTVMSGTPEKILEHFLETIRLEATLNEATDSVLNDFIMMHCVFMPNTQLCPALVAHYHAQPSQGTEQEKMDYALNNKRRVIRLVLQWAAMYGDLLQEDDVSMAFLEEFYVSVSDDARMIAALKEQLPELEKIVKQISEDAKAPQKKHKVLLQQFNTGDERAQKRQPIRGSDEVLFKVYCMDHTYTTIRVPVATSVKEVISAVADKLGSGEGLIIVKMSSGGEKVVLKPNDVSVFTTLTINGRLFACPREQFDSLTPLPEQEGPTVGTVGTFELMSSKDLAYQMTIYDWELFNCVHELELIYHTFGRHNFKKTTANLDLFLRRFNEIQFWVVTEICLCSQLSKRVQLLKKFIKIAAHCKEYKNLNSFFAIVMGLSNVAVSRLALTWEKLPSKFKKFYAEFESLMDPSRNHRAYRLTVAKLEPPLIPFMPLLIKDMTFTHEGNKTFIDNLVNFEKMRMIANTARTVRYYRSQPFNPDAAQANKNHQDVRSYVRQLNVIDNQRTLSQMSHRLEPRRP
#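 Normalized against a 6.5 mM cAMP agonist control, compounds were tested on 100 nM EPAC2 exchanging Rap1B-bound BODIPY-GDP (250 nM) for 50 uM GDP. Fluorescence drop (ex 480, em 540 nm) was tracked at room temperature over 30 min at 5-min intervals.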
# An asterisk follows results filed as active; u = inconclusive; & = joins results of further samples; [ ] = dose if it differs, or a comment. Potency is read from the fitted curve at half-maximal effect. These rows are one share of the data, so the mix of outcomes need not match the whole.
SMILES,EPAC2 antag
CCCCc1nc(Cl)c(CO)n1Cc1ccc(-c2ccccc2-c2nn[nH]n2)cc1,-15.5%
Cc1cnc(C(=O)O)c[n+]1[O-],-3.1%&27.2%&18.5%
COc1ccc(NS(=O)(=O)c2ccc(I)cc2)cc1N1CCN(C)CC1,-9.2%
CCN(CC)c1ccc(/C=C/c2ccccn2)cc1,u
COC(=O)C1CCN(Cc2ccc3c(c2)CN(C(=O)c2ccc(-n4cnnn4)cc2)CCO3)CC1,-27.6%
COC(=O)[C@@H]1C[C@@H](NC(=O)c2cccc3c(C)c(C)[nH]c23)CN1Cc1cccc2ccccc12,-0.6%
NC1(C(=O)O)CCc2cc(C(=O)O)ccc21 (centres undefined),8.5%&19.2%
Clc1ccc2c(c1)C(N1CCNCC1)=Nc1ccccc1O2,u
COc1ccccc1CNc1ccnc(-c2ccccc2OC)n1,-18.1%
Cc1nc2cnc(N(C)C)nc2n(CCc2ccccc2)c1=O,-25.7%
CC1CN(Cc2cccn2-c2ncccn2)Cc2cc(Cl)ccc2O1 (centres undefined),u
Cc1cnc(CNc2cc(-c3ccc4c(c3)OCO4)ncn2)cn1,-18.5%
CO[C@H](C(=O)[C@@H](O)[C@@H](C)O)C1Cc2cc3cc(O[C@H]4C[C@@H](O[C@H]5C[C@@H](O)[C@H](O)[C@@H](C)O5)[C@@H](O)[C@@H](C)O4)c(C)c(O)c3c(O)c2C(=O)[C@H]1O[C@H]1C[C@@H](O[C@H]2C[C@@H](O[C@H]3C[C@](C)(O)[C@H](O)[C@@H](C)O3)[C@H](O)[C@@H](C)O2)[C@H](O)[C@@H](C)O1 (some centres undefined),35.9%&34.0%[activator]
CCN(CC)CCOC(=O)C1(C2CCCCC2)CCCCC1,-2.3%&-10.3%&-13.0%
NC(=O)COCCN1CCN(C(c2ccccc2)c2ccc(Cl)cc2)CC1 (centres undefined),10.5%
COCCn1c(=O)c(CCc2ccccc2)nc2cnc(Oc3cccc(Cl)c3)nc21,-28.1%
C[C@]12CCC(=O)C=C1CCC1C2C(O)C[C@]2(C)C1CC[C@]2(O)C(=O)CO (some centres undefined),-11.6%
CCC(=O)N[C@@H]1c2ccccc2C2(CCN(Cc3[nH]c4c(Cl)cccc4c3C)CC2)[C@H]1OC,-19.0%
COc1ccc(-n2c(=O)c(C)nc3cnc(Nc4cccc(OC)c4)nc32)cc1,-27.8%
O=C(CSc1ccncc1)NCC1Cc2cccc(-c3cncnc3)c2O1 (centres undefined),0.3%
COc1ncc2nc(CCc3ccccc3)c(=O)n(CCc3ccccc3)c2n1,-13.7%
C=C1CC2C3CCC4=CC(=O)C=C[C@]4(C)[C@@]3(F)[C@@H](O)C[C@]2(C)[C@@]1(O)C(=O)COC(C)=O (some centres undefined),4.8%
CCC1CN(CCNC(=O)c2ccc3c(c2)OCCO3)Cc2cc(OC)ccc2O1 (centres undefined),-2.4%
O=C(Oc1cc(OC(=O)c2ccccc2)c2c(c1)OC(c1ccc(OC(=O)c3ccccc3)c(OC(=O)c3ccccc3)c1)[C@@H](OC(=O)c1ccccc1)C2)c1ccccc1 (some centres undefined),-3.3%
O=C(NCC1CCC2(CCN(Cc3c[nH]c4ccccc34)CC2)O1)C1CCOCC1 (centres undefined),-27.0%
CCCCCCCCNC(C)C(O)c1ccc(SC(C)C)cc1 (centres undefined),u
Cn1cccc1C(=O)N1CCC2(CCCN(C(c3ccccc3)c3ccccc3)C2)CC1,-26.2%
Cc1c(C(=O)NCCc2ccncc2)cnn1-c1nccc(-c2ccccc2C(F)(F)F)n1,-5.8%
O=C(Nc1cccc(F)c1)N1CC2(CCN(C(=O)c3cnccn3)CC2)C1,-24.6%
O=c1cnc2cnc(N3CCNCC3)nc2n1Cc1ccc(F)cc1,-3.0%
O=C(CCCCC(=O)Nc1c(I)cc(I)c(C(=O)O)c1I)Nc1c(I)cc(I)c(C(=O)O)c1I,15.0%[20.5 µM]
Cc1nc2cnc(Oc3ccccc3)nc2n(C2CC2)c1=O,-36.5%
C[C@H]1CCC(=O)N([C@H](CSc2ccc(Br)cc2)Cc2ccccc2)CC1,-18.0%
c1ccc2c(c1)OCC(CN1CCCCC1)O2 (centres undefined),-9.1%
O=c1c(-c2ccc(F)cc2)nc2cncnc2n1C1CC1,-22.7%
COCCNc1cc(-c2ccccc2CN(C)C)ncn1,-5.9%
CC[C@@]1(O)C(=O)OCc2c1cc1n(c2=O)Cc2cc3c([N+](=O)[O-])cccc3nc2-1,-16.8%
CN1CCCC2(CCN(C(=O)c3cccn3C)CC2)C1,-19.0%
COc1ccccc1CNc1ncnc2ccc(-c3ccc(N(C)C)cc3)cc12,-8.9%
COc1ccc(C(=O)c2ccc(C)cc2)c(O)c1,u
O=C1CCN(CCc2ccccc2)CCN1[C@H](CSc1ccccc1)c1ccccc1,u
CC[N+](C)(CC)CC(=O)Nc1c(C)cccc1C,u
CC1(C)O[C@@H]2C[C@H]3[C@@H]4C[C@H](F)C5=CC(=O)C=C[C@]5(C)[C@H]4[C@@H](O)C[C@]3(C)[C@]2(C(=O)CO)O1,-2.7%[56.6 µM]
CCn1c(-c2ccccc2F)nc2cc(NC(C)=O)cc(C(=O)N3CCCC3c3nccs3)c21 (centres undefined),12.2%
CC(C)Oc1cccc(-n2c(CCc3c[nH]c4ccc(Br)cc34)nc3ccccc3c2=O)c1,-24.0%
COc1ccc2c(c1)N(C[C@H](C)CN(C)C)c1ccccc1S2,-12.0%&-13.8%[56.6 µM]
CCCCCC(O)CCCC(=O)O (centres undefined),7.6%
CC(=O)N1CCC2(CCCN(C(c3ccccc3)c3ccccc3)C2)CC1,31.6µM*
COc1ccc(C(=O)/C(Br)=C\C(=O)O)cc1,6.6%
O=C(Nc1cccc(F)c1)N1CCC2(CC1)CCN(C(=O)c1ccncc1)CC2,-13.9%
COc1c2ccoc2cc2oc(=O)ccc12,-16.9%&-14.9%
COc1cccc(Cn2c(=O)c(-c3cccc(C#N)c3)nc3cnc(N4CCN(C)CC4)nc32)c1,1.0%
O=C(O)Cc1ccc(-c2ccccc2)cc1,-22.3%[56.6 µM]
CN(C)c1ncc2ncc(=O)n(CCC#N)c2n1,-16.8%
CC(C)C(=O)NCC1CCC2(CCN(Cc3ccc(-c4ccccc4Cl)o3)CC2)O1 (centres undefined),-8.7%
Cc1nc2sccn2c1CN1CCOc2ccc(CN3C[C@@H](C)O[C@@H](C)C3)cc2C1,-2.3%
COc1ccc(CNC(=O)[C@@H]2CC=C[C@@H]3CCN(Cc4ccc(Cl)c(Cl)c4)C(=O)[C@@H]32)cc1,u
COc1ccc(CCC(=O)O)cc1,-4.9%
COCCn1c(=O)c(-c2cccs2)nc2cnc(Oc3cccc(Cl)c3)nc21,-27.7%
Clc1ccccc1-c1nc(Nc2ccncc2)c2ccccc2n1,-23.0%

# Going on with the list.
SMILES,EPAC2 antag
CN(C)CCc1cc2c(c3c1ccc1ccccc13)OCO2,6.0%
O=C(c1ccco1)N1CCC2(CC1)CN(c1ccc(-c3ccccc3)cc1)C2,-23.6%
CC(=O)Oc1ccc(C2(c3ccc(OC(C)=O)cc3)Oc3ccccc3NC2=O)cc1,u
CS(=O)(=O)N1CCC2(CC1)CN(c1ccncc1)C2,-32.4%
N[C@@H](C(=O)O)c1ccc(O)c(C(=O)O)c1,-11.1%
COc1ccc(C(=O)N2CCC3(CCCN(Cc4nccs4)C3)CC2)cc1,-17.3%
Cc1cnc(C)c(-c2ccc(F)c3c2OC(CNC(=O)/C=C/c2cccs2)C3)n1 (centres undefined),-16.8%
COc1cc(C)c2c(c1C=O)Oc1c(c(C)c(O)c3c1C(O)OC3=O)OC2=O (centres undefined),u
CC(=O)[C@H]1[C@H](C#N)C[C@H]2[C@@H]3CC=C4C[C@@H](O)CC[C@]4(C)[C@H]3CC[C@@]21C,-26.9%[151 µM]
COc1ccccc1-c1ccc2ncnc(NC3CCNCC3)c2c1,-26.8%
CCOC(=O)N1CCN(Cc2ccc3c(c2)CN(C(=O)c2cc(-c4ccccc4)no2)CCO3)CC1,-18.0%
CCOC(=O)N1CCN(Cc2ccc3c(c2)CN(C(=O)c2sc(C)nc2C)CCO3)CC1,-8.0%
CC1(C)Oc2ccc(C#N)cc2[C@@H](OC2=CC(=O)CC2)[C@@H]1O,-4.4%[151 µM]
N#Cc1cccc(-c2nc(Nc3ccncc3)c3ccccc3n2)c1,u
COC(=O)N1CCC2(CCCN(c3cccc(-c4ccccc4)c3)C2)CC1,-25.1%
O=C(O)C1=C[C@@H](O)[C@@H](O)[C@H](O)C1,-21.2%
CC(=O)OC1C(=O)[C@@]2(C)C(O)CC3OC[C@]3(OC(C)=O)C2C(OC(=O)c2ccccc2)[C@]2(O)CC(OC(=O)C(O)C(NC(=O)c3ccccc3)c3ccccc3)C(C)=C1C2(C)C (some centres undefined),-18.0%
Nc1nc2ncc(=O)[nH]c2c(=O)[nH]1,-1.3%
COc1ccc(C2OCC3(COC(C)=O)C(C)C=C(C)C2C3C)cc1 (centres undefined),u
O=C(c1cnccn1)N1CCC2(CCCN(c3cccc(-c4ccccc4)c3)C2)CC1,u
COC(=O)[C@@H]1CCCN1Cc1ccc2c(c1)CN(Cc1ccccc1)CCO2,-18.8%
CC1(C)CC2C1CCC1(C)OC1CCC2(C)O (centres undefined),-5.7%
CS(=O)(=O)Nc1cccc(-c2cc(NCc3ccccc3)ncn2)c1,-11.6%
COCC(=O)Nc1cc(C(=O)N2CCCC(c3ccccc3)CC2)c2c(c1)nc(-c1ccncc1)n2C (centres undefined),-24.0%
CCC1CN(CCNC(=O)c2cccc(N3CCCC3=O)c2)Cc2cc(OC)ccc2O1 (centres undefined),4.2%
Cc1cc[n+](C2CCCCC2)c2ccccc12,-11.0%
Cc1cc(/C=C/c2ccnc3ccccc23)ccc1N(C)C,150.3%[activator]
O=C(Nc1ccccc1)N1CC2(CCN(C(=O)c3cnccn3)CC2)C1,-26.7%
Cc1oc(-c2ccccc2NC(=O)c2cccnc2)nc1CNC(=O)C1CCCCCN1C (centres undefined),-7.8%
O=S(=O)(NCc1ccc(F)cc1)c1cc(Br)ccc1Br,-43.5%
CN(C)c1ncnc2ccc(-c3cccc(NS(C)(=O)=O)c3)cc12,-17.6%
CNC(=O)c1cc2c(cn1)[nH]c1ccccc12,-6.7%&-10.4%&-32.6%
COc1ccc(OC)c(CN2C[C@H](Sc3ccc(F)cc3)C[C@H]2C(=O)N(C)C)c1,-9.9%
COc1ccc(-n2c(CCNC(=O)c3ccccc3C(F)(F)F)nnc2SC)cc1,-26.4%
O=C1C=C(O)c2ccccc2C1=O,-22.7%&-11.3%
COc1ccc(C(=O)N2CCC3(CCN(C(=O)Nc4cccc(C#N)c4)CC3)CC2)cc1,-13.1%

# Assay outcomes deposited in PubChem BioAssay by National Center for Advancing Translational Sciences (NCATS).
